# VACV E9 pol inh: blocks vaccinia virus processive DNA synthesis | in vitro processive DNA synthesis, absorbance read-out; active compounds read low; some inactives read as strong as hits | normalized absorbance, % (no concentration beside the values) | 0.94% of 46,000 active | AID 493162;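 active = replicate mean up to 90% and picked by the depositor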;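 note: 100% = median of the test wells of a plate; 100 nL library stock went into each well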
# The depositor's hits bear a star. This is a subset; the hit share may differ from the screen's.
SMILES,VACV E9 pol inh
O=C(CN1C(=O)c2ccccc2S1(=O)=O)c1ccc2c(c1)OCCCO2,109
CSc1ccc(C=C2C(=O)OC3(CCCCC3)OC2=O)cc1,101
COc1ccc(C2C(C(=O)NC(C)C)c3ccccc3C(=O)N2Cc2ccc(F)cc2)cc1 (stereo unspecified),95
CC1=CCC(C(=O)O)C(C(=O)NC2CCCCC2)C1 (stereo unspecified),94
O=C(NC1CCCCCCC1)c1ccc(CNS(=O)(=O)c2ccc(F)cc2)cc1,112
Cc1ccc(-c2n[nH]c3c2C(c2ccccc2Cl)N(c2ccc(Cl)cc2)C3=O)cc1 (stereo unspecified),104
CCOC(=O)N1CCN(C(=O)CCCn2c(=S)[nH]c3ccc(Br)cc3c2=O)CC1,97
Cc1nc2sccn2c1C(=O)c1ccccc1,97
CCOC(=O)Cc1ccc2sc(-c3ccccc3)nc2c1,98
OC(COCc1ccccc1F)CN1CCCC1 (stereo unspecified),103
CN(C1CCCCC1)S(=O)(=O)c1ccc(N)cc1,100
Cc1cc(=O)oc2cc(OC(C)C(=O)NC3CCCCCC3)ccc12 (stereo unspecified),103
Cc1ccc(C(=O)Nc2ccc(-c3nnc4n3CCCCC4)cc2)cc1,100
CN(C)/C=C1\N=C(c2cccnc2Oc2ccc(Cl)cc2)OC1=O,96
COc1cc(C(F)(F)F)c(C(=O)N(C)Cc2cccc(Cl)c2)cn1,95
NS(=O)(=O)c1ccc(NC(=O)CC2SC(=O)NC2=O)cc1 (stereo unspecified),100
O=C1Nc2ccccc2/C1=C\c1ccccc1N1CCN(Cc2ccccc2)CC1,101
COc1ccc(S(=O)(=O)N2CCc3ccccc3C2)cc1OC,105
COc1ccc(-c2csc(C(C#N)=C(SC)SC)n2)cc1,88
O=C(CN1C(=O)CSCC1=O)NCc1ccc(F)cc1,102
CCc1ccc(-n2cc3c(c(C#N)c2=N)CC(C)(C)CC3=O)cc1,105
O=C1C2C3C=CC(C3)C2C(=O)N1CCC1=CCCCC1 (stereo unspecified),101
O=C(NCc1ccc(S(=O)(=O)NCCN2CCOCC2)s1)c1ccccc1,108
COc1cc(NS(=O)(=O)c2ccc(NC(=S)NC(=O)c3ccco3)cc2)ncn1,100
CCOC(Cn1c(C)nc2ccccc21)OCC,103
Cc1nc2c(C#N)ncn2c(C)c1Cc1cccc(F)c1,125
CC1CC(C)CN(CCCNC(=O)c2cc3c(=O)[nH]c4ccccc4c3s2)C1 (stereo unspecified),58*
c1ccc(CCN2CCN(CCc3ccccn3)CC2)nc1,100
O=c1[nH]n(CNc2ccc(F)cc2)c(=O)c2ccccc12,100
O=Nc1c(O)n(Cc2ccccc2)c2ccccc12,96
CC(C)NC(=O)COc1ccc(-c2ccccc2)cc1,87
c1ccc(-c2ccc3c4ccccc4cc-3o2)cc1,102
COC(=O)Cc1ccc(C#N)n1C,97
CS(=O)(=O)CC(=O)c1ccc(F)cc1,109
O=C1OC2(CCCCC2)OC1c1ccccc1 (stereo unspecified),101
c1ccc2c(c1)CNC(c1ccc3c(c1)OCO3)c1cccn1-2 (stereo unspecified),99
COCCN1C(=O)c2ccccc2C(C(=O)NCC2CCCO2)C1c1cccs1 (stereo unspecified),77
CN(C)C=Nc1ncc2c([nH]c3ccccc32)c1C#N,89*
CC1CCCC(C)N1CC(O)COCC1COc2ccccc2O1 (stereo unspecified),100
CCOc1cccc(OCC)c2c(C)[n+](C)c(C)c1-2,98
COc1ccccc1Nc1nc2ccccc2s1,100
COc1ccc(CC(=O)N2CCN(c3ccccc3OC)CC2)cc1,99
CCOC(=O)c1nn(-c2ccc(OC)cc2)c(=O)c2c(N)scc12,93
CC1CCCCN1CCNc1ccc2nnc(-c3ccc(F)cc3)n2n1 (stereo unspecified),82
CN(C)C(=O)C[n+]1cccc(/C=N/O)c1,100
O=c1oc2ccccc2n1CCc1ccccc1,98
c1ccc(-c2onc3ccc(-n4cccc4C4OCCO4)cc23)cc1,91
Cc1cc(C)c2oc(-c3cc(NC(=O)COc4ccccc4C)ccc3Cl)nc2c1,100
C=CCOc1nnc(OCC=C)c2ccccc12,103
Cc1ccc(-c2nc(SC3CC(=O)N(c4ccccc4)C3=O)n[nH]2)cc1 (stereo unspecified),100
CCNS(=O)(=O)c1cc(-c2nnc(OC)c3ccccc23)ccc1C,101
CCCNC(=O)c1cc(CC(C)C)on1,101
COC(=O)c1c(NC(=S)NC(=O)c2ccccc2)sc2c1CCCC2,100
Cc1cc(Br)ccc1OCC(=O)N1CCc2ccccc21,107
CC(=O)Oc1ccccc1C(=O)NCC1CCCO1 (stereo unspecified),95
CC(=O)Nc1ccc(Oc2cc(C#N)c(C#N)cc2N2CCOCC2)cc1,97
O=c1ccnc(SCc2ccc(Cl)cc2)[nH]1,89
COc1ccc(CNC(C)c2ccccc2)cc1 (stereo unspecified),102
COc1ccc(CN2CC(C(=O)NCCCN3CCC(C)CC3)CC2=O)cc1 (stereo unspecified),95
CCOC(=O)c1cc2c(c(CSc3ccc(C(F)(F)F)cn3)c1)OCOC2,101

# More compounds.
SMILES,VACV E9 pol inh
O=C(OCc1ccccc1F)c1ccc(O)cc1,98
O=C1CCCC2=C1C(c1cccc(Cl)c1)n1c(nc3ccccc31)N2 (stereo unspecified),103
COc1ccccc1NC(=O)[C@H](Cc1ccccc1)N1Cc2ccccc2C1=O,90
CCOC(=O)c1cc(-c2ccccc2)on1,98
O=C(CSCc1nc2ccccc2[nH]1)N1CCOCC1,100
COc1nc(OC)nc(-n2cnc(NC(=O)Nc3cccc(Cl)c3)n2)n1,100
O=S(=O)(NCCc1cn2ccccc2n1)c1ccc2c(c1)CCCC2,101
CCC(C)NC(=O)C1CCCN(S(=O)(=O)N2CCC(C)CC2)C1 (stereo unspecified),87
CCN(CC)C(=O)c1ccc(Oc2ccc(C(=O)N(CC)CC)cc2)cc1,101
CCN(C(=O)c1cnc2ccccn2c1=O)c1ccccc1C,99
CCOC(=O)c1cc(CC)sc1NC(=S)Nc1ccccc1C(F)(F)F,105
Cc1cc(-c2ccccc2)[n+]2nc(N)sc2n1,100
COc1ccc(CCN2COc3c(cc4c(-c5ccccc5)cc(=O)oc4c3C)C2)cc1,102
Cc1cc(Cl)nc(Cl)c1C(=O)NC(=O)NC(C)(C)C,101
Cc1ccc(CNC(=O)CCSCc2ccc(C)cc2)cc1,106
CCn1c(=O)n(CC)c2cc(S(=O)(=O)N3CCOCC3)ccc21,86
CC(C)=Cc1ccc(O)cc1,99
Cc1nc2ccccc2n1CC(=O)N1CC(=O)Nc2ccccc21,100
O=C(Nc1ccc(Cl)c(Cl)c1)NC1CCCCC1,100
C(=Nc1cccc2ccccc12)c1c[nH]c2ccccc12,100
COc1cc2c(cc1OC)C(c1ccccc1)N(C(=O)CSc1nc3ccccc3o1)CC2 (stereo unspecified),99
CC1CCC(C(C)C)C(OCC(O)C[N+]2(C)CCCCC2)C1 (stereo unspecified),100
c1ccc2c(c1)CSC(=NCc1ccncc1)N2,110
COc1ccc(OC)c(CCNC(=O)CCc2nc3ncccc3c(=O)n2Cc2ccccc2)c1,99
Cc1ccc(CSc2nc(C(=O)O)ccc2C#N)cc1,99
CN(C(=O)c1cc2c(s1)-c1ccccc1S(=O)(=O)C2)c1ccccc1,98
Cc1ccc(-n2nc(C(=O)O)c(C)c(C#N)c2=O)cc1C,100
COc1cc(-c2nc3ccccn3c2/N=C/c2sccc2C)ccc1O,100
CCCS(=O)(=O)N1CCCC(C(=O)NC)C1 (stereo unspecified),110
COc1ccc(NC2=NCCC2)cc1,95
CNC12CC3CC(CC(S)(C3)C1)C2,100
COc1ccccc1NC(=O)CCSc1cccc2cccnc12,94
CN(Cc1ccco1)C(=O)c1ccc2c(c1)N(Cc1cccc(F)c1)C(=O)c1ccccc1S2,88
O=C(CSc1c(-c2ccccc2)[nH]c2ccccc12)N1CCCC1,99
O=C(CSC1CCCC1)Nc1ccccc1Br,104
O=C(NC1CCCC1)C1CCCN1S(=O)(=O)c1cccc2cccnc12 (stereo unspecified),100

# 28 entries from above, ordered by formula weight, low to high.
SMILES,VACV E9 pol inh
COC(=O)Cc1ccc(C#N)n1C,97
CNC12CC3CC(CC(S)(C3)C1)C2,100
CS(=O)(=O)CC(=O)c1ccc(F)cc1,109
O=c1oc2ccccc2n1CCc1ccccc1,98
Cc1cc(-c2ccccc2)[n+]2nc(N)sc2n1,100
c1ccc(-c2ccc3c4ccccc4cc-3o2)cc1,102
CCOC(Cn1c(C)nc2ccccc21)OCC,103
O=Nc1c(O)n(Cc2ccccc2)c2ccccc12,96
CC1=CCC(C(=O)O)C(C(=O)NC2CCCCC2)C1 (stereo unspecified),94
c1ccc2c(c1)CNC(c1ccc3c(c1)OCO3)c1cccn1-2 (stereo unspecified),99
Cc1ccc(CNC(=O)CCSCc2ccc(C)cc2)cc1,106
CSc1ccc(C=C2C(=O)OC3(CCCCC3)OC2=O)cc1,101
c1ccc(-c2onc3ccc(-n4cccc4C4OCCO4)cc23)cc1,91
COc1ccc(S(=O)(=O)N2CCc3ccccc3C2)cc1OC,105
O=C(CSc1c(-c2ccccc2)[nH]c2ccccc12)N1CCCC1,99
Cc1cc(=O)oc2cc(OC(C)C(=O)NC3CCCCCC3)ccc12 (stereo unspecified),103
CN(C)/C=C1\N=C(c2cccnc2Oc2ccc(Cl)cc2)OC1=O,96
CCNS(=O)(=O)c1cc(-c2nnc(OC)c3ccccc23)ccc1C,101
CCN(CC)C(=O)c1ccc(Oc2ccc(C(=O)N(CC)CC)cc2)cc1,101
O=C(CN1C(=O)c2ccccc2S1(=O)=O)c1ccc2c(c1)OCCCO2,109
COc1nc(OC)nc(-n2cnc(NC(=O)Nc3cccc(Cl)c3)n2)n1,100
COc1ccc(CN2CC(C(=O)NCCCN3CCC(C)CC3)CC2=O)cc1 (stereo unspecified),95
CCOC(=O)c1cc2c(c(CSc3ccc(C(F)(F)F)cn3)c1)OCOC2,101
O=C(NC1CCCCCCC1)c1ccc(CNS(=O)(=O)c2ccc(F)cc2)cc1,112
Cc1ccc(-c2n[nH]c3c2C(c2ccccc2Cl)N(c2ccc(Cl)cc2)C3=O)cc1 (stereo unspecified),104
COc1cc2c(cc1OC)C(c1ccccc1)N(C(=O)CSc1nc3ccccc3o1)CC2 (stereo unspecified),99
CN(Cc1ccco1)C(=O)c1ccc2c(c1)N(Cc1cccc(F)c1)C(=O)c1ccccc1S2,88
CCOC(=O)N1CCN(C(=O)CCCn2c(=S)[nH]c3ccc(Br)cc3c2=O)CC1,97

# Later entries.
SMILES,VACV E9 pol inh
O=C(O)CCCCC1CCSS1 (stereo unspecified),100
COC(=O)CCS(=O)(=O)c1cccc2c(S(=O)(=O)CCC(=O)OC)cccc12,100
COc1ccc(/C=N/C2=NNC(=O)C(CC(=O)O)S2)cc1 (stereo unspecified),100
O=C1OC(c2ccccc2)=N/C1=C\N1CCCCC1,100
OC(CCl)CN1CCN(c2cccc(C(F)(F)F)c2)CC1 (stereo unspecified),105
O=C(NC(C(=O)c1ccccc1)n1cnccc1=O)c1ccccc1 (stereo unspecified),102
Nc1cccc(/C=C/C(=O)O)c1,103
Fc1nc(N2CCOCC2)c2c(c1Cl)Oc1ccccc1O2,100
CC1SC(C)C(=O)N(CC(=O)NCc2ccco2)C1=O (stereo unspecified),108
Cc1ccc(-n2nc3c([n+]2[O-])CCc2nonc2-3)cc1,104
c1ccc2nc(Sc3ncn[nH]3)c(Sc3ncn[nH]3)nc2c1,99
O=S(=O)(Nc1ccccc1)c1cccc2cccnc12,100
CCCCn1c(-c2ccc(OCC)cc2)cnc1NCc1cccc(Cl)c1,97
CN(Cc1ccco1)C(=O)C1CCCN1S(=O)(=O)c1cccc2nsnc12 (stereo unspecified),98
O=C(O)c1ccccc1N(Cc1ccccc1)C(=O)c1cccs1,97
CCC(=O)NC(c1ccco1)c1c(OC(C)=O)ccc2ccccc12 (stereo unspecified),100
CSc1nc2ccccc2n1CC(=O)N(c1ccccc1)C(C)C,107
CCOc1ccc(-n2cnnn2)cc1S(=O)(=O)NC1CC1,100
Cc1c(/C=C2\SC(=Nc3ccccc3)N(C3CCCC3)C2=O)c2ccccc2n1CC(N)=O,100
O=C(NC(OCc1ccccc1)(C(F)(F)F)C(F)(F)F)c1ccccc1,100
Cc1cc(C)c(-n2nnnc2SCC(=O)Nc2nn(-c3ccccc3)nc2C(N)=O)c(C)c1,100
CCOC(=O)CCc1c(C)nc2ccc(Br)cn2c1=O,102
CC1=NN(C(=O)c2ccc(Cl)cc2)C(C)(C)C1,100
COC(=O)c1cn(CC(=O)NCc2ccc3c(c2)OCO3)c2ccccc12,78
O=C(NCc1ccc(Cl)cc1)c1ccc2c(c1)N(Cc1cccc(F)c1)C(=O)CS2=O (stereo unspecified),105
Cc1ccc2nc(N(CCN(C)C)C(=O)c3ccco3)sc2c1,92
CN=C1NC(=O)CC(C(=O)Nc2ccc3ccccc3c2)S1 (stereo unspecified),101
O=C(NCc1ccc(Cl)cc1)C1CCC(CNS(=O)(=O)c2ccc(Cl)cc2)CC1 (stereo unspecified),101
O=S(=O)(Oc1cccc(N2CCOCC2)c1)c1ccc(Cl)cc1,85
CC1Oc2ccccc2C=C1/C=C(\NC(=O)c1ccccc1)C(=O)N1CCOCC1 (stereo unspecified),102
CCN1C(=O)/C(=C/C=C/c2ccco2)C(=O)NC1=S,65*
Cc1cccc(NC(=S)N2CCn3cccc3C2c2cccs2)c1 (stereo unspecified),85
CC(C)(C)C(=O)OCc1nc(-c2ccc(Cl)cc2)cs1,104
O=C(CCn1c(=O)oc2ccccc21)NC1=NCCS1,99
COc1cc2ccc(=O)oc2c(OC2OC(CO)C(O)C(O)C2O)c1O (stereo unspecified),99
O=C(c1ccccc1)c1nc2ccccc2[nH]c1=O,99
c1cncc(-c2nc(-c3cccs3)cs2)c1,99
O=C(CCc1ccccc1)NCCc1nc2ccccc2[nH]1,104
O=C(CN1C(=O)c2ccccc2S1(=O)=O)NC1CC1,94
CNC(=O)NC(=O)Cn1cnc2sc(-c3ccccc3)cc2c1=O,107
O=C1S/C(=C/c2ccccc2)C(=O)N1CC(O)Cn1c2ccccc2c2ccccc21 (stereo unspecified),98
CC(C)OC(=O)n1c(=S)oc2ccccc21,99
O=S1(=O)CCC(NC(=S)SCCOc2ccccc2)C1 (stereo unspecified),86
CN(C(=O)COC(=O)C1CC2C=CC1C2)C1CCCCC1 (stereo unspecified),102
FC(F)(F)c1cc(NC(=S)NC2CCCCC2)cc(C(F)(F)F)c1,96
CCOC(=O)CNc1nc2ccc(C)cc2n2cnnc12,102
CSc1nnc2c(n1)OC=Nc1ccc(Cl)cc1-2,102
